Ecoli growth: blocks Escherichia coli growth; 330,000 tested, 0.21% active; OD600, 23 h; hits give low values; OD600 absorbance (concentration not given with the values);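 active = OD600 absorbance below the run mean of sample wells minus 3.6 SD, in any replicate, cut at about 0.56 in these data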;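 also: stock transfer was 300 nL into about 60 µL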
FGF22 binding: binders of recombinant human FGF22 by thermal shift; Q9HCT0; SYPRO orange fluorescence; percent of sucrose octasulfate shift, DMSO zero; calls only at 9.99 µM; 340,000 tested, 1.5% active; AID 651658;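 active = melting point raised past a set limit in the mean and every replicate; three in four hits are not shown here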
Target sequence (Q9HCT0 whole entry, looked up): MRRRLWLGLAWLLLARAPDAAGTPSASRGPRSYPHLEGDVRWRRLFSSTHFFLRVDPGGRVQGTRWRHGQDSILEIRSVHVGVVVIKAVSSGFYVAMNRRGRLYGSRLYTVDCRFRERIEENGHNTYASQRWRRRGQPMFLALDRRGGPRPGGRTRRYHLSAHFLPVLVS
rRNA inh HTS: inhibits bacterial ribosomal RNA function over humanized ribosomes. GFP signal change (wild-type ribosome), % (concentration not given with the values). E. coli WT GFP vs humanized-ribosome RFP mutants, fluorescence, 24 h; hits give low values; DMSO median 0, no signal -100. 350,000 tested, 1.6% active;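 active = significant combined selectivity score with lowered wild-type GFP, culture density cut under 30%, mutant RFP and density less affected; inactive = any of these conditions unmet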; also: one replicate is shown; some compounds called inactive have numbers as strong as hits
B2AR ag: human beta-2 adrenergic receptor agonism by FAP; response, % (concentration not given with the values); 340,000 tested, 0.43% active; P07550; Am2.2-beta2AR cells, FAP receptor internalization, flow cytometry; reference of the scale not given here;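 active = response above a set limit, near 3 SD of response in nonfluorescent compounds, cut at about 42% in these data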;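 also: stock transfer was 100 nL into about 11 µL; a reference agonist was the positive control; negative values mostly stem from fluorescent compounds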
ALR H2O2 inh: blocks human ALR sulfhydryl oxidase activity | inhibition, % (test concentration not listed) | P55789 | 290,000 tested, 3.8% active | AID 485317 | purified ALR, DTT oxidation, H2O2 HRP-luminol luminescence;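 active = mean and each replicate at 75% or more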;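 also: stock transfer was 7.5 nL into about 7.5 µL; 0% = neutral wells and 100% = wells with inactivated enzyme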
UCH37 DUB inh: blocks the human deubiquitinase UCH37. 330,000 tested, 0.33% active. AID 588478. purified proteasome/UCH37, Ub-AMC cleavage fluorescence. Q9Y5K5. inhibition, % (concentration not given with the values);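 active = mean of two replicates above 20%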;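 also: 0% = compound-free wells with enzyme and 100% = wells lacking proteasome; stock transfer was 100 nL into about 20 µL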
Target sequence (Q9Y5K5 whole entry, looked up): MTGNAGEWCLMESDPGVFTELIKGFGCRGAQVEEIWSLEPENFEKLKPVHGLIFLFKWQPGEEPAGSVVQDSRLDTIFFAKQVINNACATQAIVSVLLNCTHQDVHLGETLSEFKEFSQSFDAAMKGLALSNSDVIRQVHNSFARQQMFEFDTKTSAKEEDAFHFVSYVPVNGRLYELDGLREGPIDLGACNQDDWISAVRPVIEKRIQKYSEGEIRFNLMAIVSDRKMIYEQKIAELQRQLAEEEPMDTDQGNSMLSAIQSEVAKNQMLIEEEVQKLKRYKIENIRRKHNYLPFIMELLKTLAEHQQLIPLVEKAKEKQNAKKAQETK
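Material: human UCH37 enzyme supplied as purified proteasome complex. Measure: % inhibition of Ub-AMC cleavage fluorescence. Medium: pH 7.4 Tris-HCl (50 mM) with ovalbumin, ATP-MgCl2, DTT. Times: 30 min preincubation with enzyme, 25 min cleavage at room temperature. Detection: AMC fluorescence intensity at 355/460 nm.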
HNF4A DNA FP: change in binding of human HNF4 alpha to DNA; P41235; HNF4a-FITC DNA binding, fluorescence polarization, 1 h; activity change, % at 10 µM; 360,000 tested, 0.3% active; AID 1224865; in the data active = activity change above about 30%, passing the limit was not always enough;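 also: controls were the assay level and a saturating level of protein; the project sought stronger binding though the title names inhibitors; some compounds called inactive have numbers as strong as hits; positive values seem to mean higher polarization but the record does not say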
Target sequence (P41235 whole entry, looked up): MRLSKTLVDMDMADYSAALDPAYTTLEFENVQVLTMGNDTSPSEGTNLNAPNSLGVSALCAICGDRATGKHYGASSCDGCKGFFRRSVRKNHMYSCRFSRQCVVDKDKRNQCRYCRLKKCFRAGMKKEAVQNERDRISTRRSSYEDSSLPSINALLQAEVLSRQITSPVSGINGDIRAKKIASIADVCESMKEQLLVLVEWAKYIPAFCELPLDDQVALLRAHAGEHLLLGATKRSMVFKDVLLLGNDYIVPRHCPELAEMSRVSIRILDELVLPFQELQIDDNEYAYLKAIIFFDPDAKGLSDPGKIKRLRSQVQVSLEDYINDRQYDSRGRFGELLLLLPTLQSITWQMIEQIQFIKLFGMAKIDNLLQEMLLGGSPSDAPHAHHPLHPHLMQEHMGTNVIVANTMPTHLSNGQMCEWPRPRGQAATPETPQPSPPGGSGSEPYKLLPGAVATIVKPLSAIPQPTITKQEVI
rRNA inh HTS OD600: further read-out of rRNA inh HTS, marked with its call; OD600 change, %; measured here: OD600 growth;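 optical density of the mix in the first replicate; 0 = DMSO median and -100 = no signal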
rRNA inh HTS RFP: also measured in rRNA inh HTS; calls as there; RFP signal change, %; measured here: RFP humanized mutant strains;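 first replicate; 0 = DMSO median and -100 = no signal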
Starred values were filed as active, the others as inactive; i = inactive; x = no result given. Not all compounds are listed. The share of hits here may be higher or lower than overall.

molecule	Ecoli growth	FGF22 binding	rRNA inh HTS	rRNA inh HTS OD600	rRNA inh HTS RFP	B2AR ag	ALR H2O2 inh	UCH37 DUB inh	HNF4A DNA FP
COc1cccc(CC(=O)OCC(=O)N(C)CC(=O)Nc2ccc(F)cc2)c1	0.6	i	-2	7	-1.6	1	-4	1.9	-2.0
Cc1ccccc1N(C(=O)CCC(=O)Nc1ccccn1)C(C(=O)NC(C)C)c1ccc(F)cc1 (configuration not stated)	0.66	i	9	14	-1.1	3	0	2.3	2.7
COc1cccc(-c2nn(C)c3sc(C(=O)N4CCOCC4)cc23)c1	0.69	i	-13	-14	-1.9	-6	-2	3.3	-1.8
CCOC(=O)C1=C[C@@H](C(C)(C)C)N(S(=O)(=O)c2ccc(C)cc2)[C@H]1c1ccccc1	x	i	17	-25	-6.6	x	x	x	-4.5
O=C(c1ccc(Cl)s1)N1CCOCC1	0.68	x	x	x	x	7	-19	1.5	1.8
c1ccc(-c2nnc(SCc3nc4ccccc4[nH]3)n2Cc2ccco2)nc1	0.73	x	x	x	x	-9	-3	-0.4	3.3
Cc1oc2c(c1C(=O)NCc1cc(C(=O)O)co1)CCCC2	0.67	x	x	x	x	-4	3	4.8	-4.7
COC(=O)Nc1cc(C)n(-c2ccccc2)n1	0.71	i	9	9	1.3	3	-4	2.9	-1.9
COC(=O)[C@]12CCCCC=C1N(Cc1cccc3ccccc13)C(=O)[C@H](CC(=O)NCCC(C)C)C2	x	i	4	14	15	x	x	x	0.0
Cc1cc(C)cc(NC(=O)CSc2nc(=O)n3cc(C)ccc3n2)c1	0.69	i	-1	3	-1.7	-4	x	4.7	1.6
CC(C)(C)NCCOc1ccc2ccccc2c1	0.64	i	11	8	2.3	-2	-8	0.5	0.2
CC(C)(C)OC(=O)C[C@@H]1C/C=C\C[C@H](CC(=O)N(CCO)Cc2ccccc2)C(=O)N2CCC[C@H]2COC1=O	x	i	-4	-1	6.1	1	-2	4.8	3.0
CCC(=O)NC(c1cccs1)c1cc([N+](=O)[O-])c2cccnc2c1OC (configuration not stated)	x	i	-12	14	3.8	x	x	x	2.6
Cc1ccc(S(=O)(=O)n2c([N+](=O)[O-])cnc2C)cc1C	x	i	8	17	-1.2	7	3	x	5.4
O=C(NCCN1CCCCC1)/C(=N\O)c1ccccc1	x	x	x	x	x	0	-4	x	2.5
CC(NC(=O)c1ccc(Cn2cc([N+](=O)[O-])cn2)o1)c1ccccc1 (configuration not stated)	0.68	x	x	x	x	6	x	3.2	1.2
CCOc1ccc(C(=O)OC(C)CN2CCCCC2)cc1 (configuration not stated)	0.71	i	3	5	-1.5	4	-11	1.7	1.7
Cc1nc(CS(=O)(=O)c2ccccc2)cc(Sc2ccc(Cl)cc2Cl)n1	0.77	x	x	x	x	-7	-28	1.8	1.7
COc1ccc(S(=O)(=O)NNC(=O)Nc2ccc(F)cc2)cc1	0.62	i	16	5	1.1	3	-5	3.7	-0.2
CC1=NN(CCc2ccccn2)C(=O)CC1	0.73	i	14	10	1.2	2	-12	2.4	-0.7
O=C(c1cccs1)N1CCN(c2ccc([N+](=O)[O-])cc2F)CC1	0.67	i	13	-5	-0.9	-6	-3	7.0	-0.9
CN1OC[C@@H]2CN(S(=O)(=O)c3cccc4ccccc34)[C@H](c3ccc(-c4cccnc4)cc3)C[C@@H]21	x	i	-17	-30	-2.6	x	x	x	0.7
CCCNC(=O)C(=O)NCC(c1ccc2c(c1)OCO2)N1CCN(c2ccc(F)cc2)CC1 (configuration not stated)	0.71	i	-4	-5	-3.1	-5	12	1.2	5.0
CN(C)/C=C/C(=O)c1ccc(F)cc1F	0.65	i	1	2	-2.1	5	0	5.4	2.5
C=CCn1c(=N)c(C(=O)NCCCOC)cc2c(=O)n3cc(C)ccc3nc21	0.65	x	x	x	x	-13	x	i	15

Entries shown so far containing a Cl atom (2):
molecule	Ecoli growth	FGF22 binding	rRNA inh HTS	rRNA inh HTS OD600	rRNA inh HTS RFP	B2AR ag	ALR H2O2 inh	UCH37 DUB inh	HNF4A DNA FP
O=C(c1ccc(Cl)s1)N1CCOCC1	0.68	x	x	x	x	7	-19	1.5	1.8
Cc1nc(CS(=O)(=O)c2ccccc2)cc(Sc2ccc(Cl)cc2Cl)n1	0.77	x	x	x	x	-7	-28	1.8	1.7

The list goes on:
molecule	Ecoli growth	FGF22 binding	rRNA inh HTS	rRNA inh HTS OD600	rRNA inh HTS RFP	B2AR ag	ALR H2O2 inh	UCH37 DUB inh	HNF4A DNA FP
COc1ccc(CNC(=O)COC(=O)CCS(=O)(=O)c2ccc(C)cc2)cc1OC	0.7	i	4	6	-1.4	5	3	4.3	-1.9
O=C(NCc1cccc(OC(F)(F)F)c1)c1ccc2c(c1)S(=O)(=O)c1cc(Cl)ccc1C2=O	0.71	i	9	1	3.1	3	-1	3.0	0.5
N#CCCN(C(=O)COC(=O)CCc1nc2ccccc2c(=O)[nH]1)c1ccccc1F	0.72	i	2	4	-1.8	-1	x	1.8	6.2
N#CCCN(Cc1cccnc1)C(=S)NC(=O)c1ccc(S(=O)(=O)N2CCCC2)cc1	0.7	i	8	3	-2.2	-2	-3	4.8	-3.5
COc1ccc(CCN(C)C(=O)C2CCN(Cc3ccc(C)cc3)CC2)cc1OC	0.71	i	14	4	-0.8	2	-5	2.5	1.0
COc1ccc(S(=O)(=O)N2C3CCC2CC(NC(=O)C2CC2)C3)cc1 (configuration not stated)	0.67	x	x	x	x	-4	-1	3.8	3.3
O=C(NC1CCNCC1)C1CCCCC1	0.67	i	8	8	3.1	6	-2	0.9	1.2
O=C(NC1CCCN(Cc2ccc(Cl)cc2)C1)c1ccoc1 (configuration not stated)	0.66	i	-5	-11	0.9	-5	-25	-0.3	-5.5
CCOC(=O)C(NS(=O)(=O)c1ccccc1)(C(F)(F)F)P(=O)(OCC(C)C)OCC(C)C (configuration not stated)	0.7	x	6	9	1.9	-1	4	1.8	-0.2
CCOc1cc(C2CC(=O)NC(SCC)=C2C#N)ccc1O (configuration not stated)	0.74	i	5	-6	1.8	0	x	4.1	0.1
Cc1cc(S(=O)(=O)NCCN2CCOCC2)c(C)s1	0.72	x	x	x	x	x	-3	1.8	3.9
Cc1nnc2n(-c3ccccc3)c(=O)c3ccccc3n12	0.71	i	18	6	1.1	-5	2	2.4	2.7
COc1ccc(Cl)cc1C(=O)NNC1CC(=O)N(Cc2ccc(Cl)cc2)C1=O (configuration not stated)	0.71	x	x	x	x	-8	34	-2.1	3.7
CN1CCc2c1nc1ccccc1c2NC(=O)CN1CCCC1	0.69	i	2	-1	1.7	28	-8	-61	-0.1
O=C1CCC/C1=C/Nc1cccc(F)c1	0.65	i	7	9	-2.5	1	16	14	2.4
O=C(Nc1ccc(S(=O)(=O)NC2=NCCCCC2)cc1)c1ccc(C(F)(F)F)cc1	0.67	i	-5	-12	2.0	14	-7	3.6	-1.1
Cc1cc(C)c2nc(NC(=O)C3CSC4(C)CCC(=O)N34)sc2c1 (configuration not stated)	0.72	i	0	3	6.0	0	1	2.9	3.7
O=C(O)c1ccc(COc2c(F)c(F)c(F)c(F)c2F)o1	0.7	x	x	x	x	4	96*	3.2	-9.7
CN1CC2=Cc3ccccc3OC23Oc2ccccc2C=C3C1	0.71	x	x	x	x	-15	19	-14	-10
O=C(/C=C/c1ccco1)Nc1ccc2c(c1)OCO2	0.68	i	-1	16	-3.2	0	3	7.0	0.8
COc1cccc(-c2[nH]nc3c2C(c2ccoc2)C(C#N)=C(N)O3)c1 (configuration not stated)	0.68	x	x	x	x	-4	21	3.7	-3.3
C/C(=N\NC(=S)Nc1ccc(C)cc1)c1cc2ccccc2o1	x	i	-14	2	0.3	4	-4	x	2.0
CNc1cnc(-c2ccsc2)cn1	x	i	19	19	0.3	x	x	x	1.7
CC(C)(C)[C@H]1C=C(C(=O)N2CCN(Cc3ccc4c(c3)OCO4)CC2)O[C@@H](OCCCCO)C1	x	i	2	2	7.6	-2	-7	1.5	4.8
COc1cc(NC(=O)[C@H]2O[C@@H](n3ccc(N)nc3=O)[C@H](O)[C@@H]2O)cc(OC)c1OC	x	i	11	4	3.1	x	x	x	11

5 compounds from above, sorted by the number in rRNA inh HTS RFP, smallest number first.
compound	rRNA inh HTS RFP
O=C(/C=C/c1ccco1)Nc1ccc2c(c1)OCO2	-3.2
N#CCCN(Cc1cccnc1)C(=S)NC(=O)c1ccc(S(=O)(=O)N2CCCC2)cc1	-2.2
N#CCCN(C(=O)COC(=O)CCc1nc2ccccc2c(=O)[nH]1)c1ccccc1F	-1.8
CNc1cnc(-c2ccsc2)cn1	0.3
O=C(Nc1ccc(S(=O)(=O)NC2=NCCCCC2)cc1)c1ccc(C(F)(F)F)cc1	2.0

Additional records
molecule	Ecoli growth	FGF22 binding	rRNA inh HTS	rRNA inh HTS OD600	rRNA inh HTS RFP	B2AR ag	ALR H2O2 inh	UCH37 DUB inh	HNF4A DNA FP
Cc1nc(CSc2nc3[nH]ncc3c(=O)n2-c2ccccc2)cs1	0.69	x	x	x	x	4	-18	-0.7	-1.0
O=C(O)C1CC2CCC1CC2 (configuration not stated)	x	i	13	15	-0.7	-4	x	x	-1.5
Cc1ccc(NC(=O)CN(C)C(=O)CCC(=O)c2cccs2)cc1	0.65	x	x	x	x	-2	x	0.2	3.1
COc1ccccc1-c1cccc(-c2nc(C(=O)N3CCCCC3)cc3c2[C@@H](CCO)N(S(=O)C(C)(C)C)C3)c1 (some centres not stated)	x	i	-2	-3	4.9	x	x	x	-0.1
CCn1c(=N)n(CC(=O)c2ccc(OC)cc2)c2ccccc21	0.67	x	x	x	x	4	x	3.1	-0.3
COCCNC(=O)C(c1ccc(F)cc1)N(C(=O)CCC(=O)Nc1nccs1)c1ccc(C)cc1 (configuration not stated)	0.66	i	2	11	-0.4	8	x	2.7	-0.5
CSc1nc(NC(C)=O)nc(C)c1Br	0.73	x	x	x	x	0	2	-4.2	-4.9
COC(=O)C1CCN(C(=O)C2CC(=O)N(c3ccc(C)c(Cl)c3)C2)CC1 (configuration not stated)	x	i	-4	-1	-1.7	1	x	x	4.1
